Mtb H37Rv: Confirmatory growth inhibition assay against Mycobacterium tuberculosis H37Rv, potency (AID 1949) | most inactive calls were filed without a number and no value below 0 was filed | inhibition, % at 10 µg/mL, or IC50 in µg/mL where a hit was titrated | 1.6% of 100,000 active;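 active = confirmed in a dose series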;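 also: bacteria grown 7 days with compound before Alamar blue readout; 0% = untreated bacteria and 100% = reference antibiotic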
Starred values were filed as active, the others as inactive; i = inactive. An excerpt; the hit share may differ from the screen's.

SMILES	Mtb H37Rv
COc1ccc(NC(=O)CN(Cc2cccc(C)c2)S(=O)(=O)c2ccc(Cl)cc2)c(OC)c1	2.1%
CC1(C)CC(NC(=S)NC(=O)c2ccccc2)CC(C)(C)N1	i
Nc1nnc(SCC(=O)Nc2ccc3c(c2)OCO3)s1	i
COC(C(=O)Nc1ccccc1SC)c1ccccc1 (centres undefined)	i
CC(C)NC(=O)c1cccc(COc2ccc(Cl)cc2Cl)c1	17.1%
COc1ccc(NC(=O)N2CCCC2)c(OC)c1	i
COC(=O)c1cc(C(=O)Nc2nnc(C(F)(F)F)s2)cc([N+](=O)[O-])c1	i
COc1ccc(S(=O)(=O)N2CCC(C(=O)O)CC2)cc1Cl	i
COc1ccc(-c2cc(=O)oc3c(C)c(OCc4ccccc4OC)ccc23)cc1	i
CNC(=S)NCCN1CCOCC1	i
CCc1cc2c(C)cc(=O)oc2cc1OCc1ccccc1OC	i
Cc1c(NC(=O)CSc2nc(-c3ccccc3)cs2)c(=O)n(-c2ccccc2)n1C	i
COc1ccc(N(CC(=O)Nc2cccnc2)S(C)(=O)=O)cc1	i
CCOc1ccc(S(=O)(=O)Nc2cc(SCC(=O)O)c(O)c3ccccc23)cc1	3.5%
CCC1CCc2c(sc(NC(=O)c3ccoc3C)c2C(N)=O)C1 (centres undefined)	7.6%
O=C(Nc1cccc(C(=O)O)c1)/C(=C\c1cccc([N+](=O)[O-])c1)NC(=O)c1ccccc1Cl	i
Cc1ccc(CN2C(=O)c3oc4ccc(F)cc4c(=O)c3C2c2ccc(F)cc2)cc1 (centres undefined)	i
O=C1OC(C(=O)Nc2ccc(C(F)(F)F)cc2)Cc2ccccc21 (centres undefined)	1.2%
CC(C)(Oc1ccc(Cl)cc1)C(=O)Nc1ncc(S(=O)(=O)c2ccc([N+](=O)[O-])cc2)s1	i
Cc1cc(OCC(=O)NCCCN(C)C)cc(C)c1Br	2.3%
O=C(Nc1ccc([N+](=O)[O-])cn1)c1ccc(Br)o1	6.3%
Cn1c(SCCC(=O)Nc2ccccc2)nnc1-c1cc2ccccc2o1	i
CC(C)NC(=O)c1ccccc1NC(=O)c1ccccc1F	i
O=C(Nc1ccccc1)OCCCCOC(=O)Nc1ccccc1	3.2%
O=C(c1cnn2c(C(F)F)cc(C3CC3)nc12)N1CCc2ccccc2C1	i
CCc1ccc(OCC(=O)Nc2cccc(C(C)=O)c2)c(Br)c1	i
CC(C)NS(=O)(=O)c1ccc(OCC(=O)N2CCN(c3cccc(Cl)c3)CC2)cc1	i
Cc1cccc(C(C)C)c1NC(=O)c1ccc(F)cc1	i
CC(C)Oc1ccc(C(=O)Nc2ccc(-c3nc4ncccc4o3)cc2)cc1	3.2%
COc1ccc(NC(=O)c2c(NC(=O)COc3ccccc3)sc3c2CCCCC3)c(OC)c1	i
Cc1ccccc1NC(=O)NC(C)c1cccs1 (centres undefined)	i
CCOc1ccc2cc(C=O)c(=O)[nH]c2c1	i
Fc1ccc(NC(=S)Nc2ccc(N3CCOCC3)cc2)cc1Cl	i
Cc1c(C(=O)NCc2cccnc2)oc2c1C(=O)CC(C)(C)C2	i
O=C(Nc1ccccc1)N1CCN(c2nc3ccccc3s2)CC1	i
O=C(O)CCCC(=O)Nc1nc(-c2cccc3ccccc23)cs1	i
C=CCN(CC=C)CCOc1ccccc1OCC	i
O=C(NC(=S)Nc1cccc(-c2nc3ncccc3o2)c1)c1ccc2ccccc2c1	2.0%
CCCCOc1ccc(C(=O)NCC2(c3ccc(OC)cc3)CCOCC2)cc1	3.1%
COC(=O)c1ccc(C(=O)OC)c(NS(=O)(=O)c2ccc(OC)c(OC)c2)c1	i
O=C(CCc1ccccc1)Nc1ccc(N2CCOCC2)c(Cl)c1	3.0%
O=C(NC1CCC(NC(=O)c2cc(Cl)ccc2Cl)CC1)c1cc(Cl)ccc1Cl (centres undefined)	i
CCn1c(SCC(=O)Nc2cccc(Cl)c2C)nc2ccccc2c1=O	i
O=c1c2ccccc2nc(/C=C/c2ccc([N+](=O)[O-])o2)n1CCc1ccccc1	i
O=C1CC(c2ccccc2)CC2=C1C(c1ccco1)Nc1ccccc1N2 (centres undefined)	i
Cc1ccc(CN2CCCn3c2nc2c3c(=O)[nH]c(=O)n2C)cc1	i
CC(=O)Nc1ccc(Nc2nc(-c3ccc(O)c(O)c3)cs2)cc1	i
O=C(CCC1CCCC1)N1CCN(S(=O)(=O)c2ccc([N+](=O)[O-])cc2)CC1	i
CCc1cc(=O)oc2cc3oc(C)c(-c4ccccc4)c3cc12	0.2%
CCCOc1ccc(C(C)=O)cc1CC(C(N)=O)C(N)=O	i

(further entries)
SMILES	Mtb H37Rv
O=C(CCC1CCCCC1)NCCCNC(=O)CCC1CCCCC1	i
CCOC(=O)c1c(NC(=S)N2CCN(c3ncccn3)CC2)sc(C)c1-c1ccccc1	i
CCOC(=O)C1=C(CSCc2ccccc2)NC(=O)NC1c1ccc2c(c1)OCO2 (centres undefined)	i
Cc1ccc(CN2C(=O)C(O)(CC(=O)c3cccnc3)c3cc(Cl)ccc32)cc1 (centres undefined)	i
Cc1cccc(OCCOCCN(C)C)c1C	i
CCOc1ccc2nc(NS(=O)(=O)c3c(C)cc(C)cc3C)sc2c1	i
COc1ccc(CNC(=O)CN(c2ccc(I)cc2)S(C)(=O)=O)cc1	i
COC(=O)CN(c1cc(Cl)ccc1Cl)S(C)(=O)=O	i
CN(C)C(=O)c1ccc(NC(=O)c2cccnc2)cc1	i
O=C(CSc1nc(-c2ccccc2)cs1)Nc1ccccc1	28.9%
Cc1cc(Cl)ccc1OCC(=O)N1CCC(Cc2ccccc2)CC1	i
Cc1cc(C(F)(F)F)c2c(N)c(C(=O)c3ccc(Cl)s3)sc2n1	i
COc1ccc(C2=NN(C(C#N)c3ccc(N(C)C)cc3)C(c3ccccc3)C2)cc1 (centres undefined)	i
COCC(=O)Nc1ccc(C)cc1[N+](=O)[O-]	i
Fc1ccc(CN2CCN(C(=S)NCCc3ccccc3)CC2)c(Cl)c1	4.4%
CCn1c2ccccc2n2c(SCc3nc4ccccc4[nH]3)nnc12	i
Cn1c(=O)n(C)c2cc(NC(=O)c3ccccc3)ccc21	i
O=[N+]([O-])c1cccc(NC(=S)Nc2nn(Cc3ccc(Cl)c(Cl)c3)cc2Br)c1	i
COC(=O)c1ccc(NS(=O)(=O)c2cccs2)cc1	i
CCC(C(=O)N1CCN(c2ccccn2)CC1)c1ccccc1 (centres undefined)	i

Taken from above, 20 compounds:
SMILES	Mtb H37Rv
CCCOc1ccc(C(C)=O)cc1CC(C(N)=O)C(N)=O	i
O=C(CCC1CCCCC1)NCCCNC(=O)CCC1CCCCC1	i
CCOC(=O)c1c(NC(=S)N2CCN(c3ncccn3)CC2)sc(C)c1-c1ccccc1	i
CCOC(=O)C1=C(CSCc2ccccc2)NC(=O)NC1c1ccc2c(c1)OCO2 (centres undefined)	i
Cc1ccc(CN2C(=O)C(O)(CC(=O)c3cccnc3)c3cc(Cl)ccc32)cc1 (centres undefined)	i
Cc1cccc(OCCOCCN(C)C)c1C	i
CCOc1ccc2nc(NS(=O)(=O)c3c(C)cc(C)cc3C)sc2c1	i
COc1ccc(CNC(=O)CN(c2ccc(I)cc2)S(C)(=O)=O)cc1	i
COC(=O)CN(c1cc(Cl)ccc1Cl)S(C)(=O)=O	i
CN(C)C(=O)c1ccc(NC(=O)c2cccnc2)cc1	i
O=C(CSc1nc(-c2ccccc2)cs1)Nc1ccccc1	28.9%
Cc1cc(Cl)ccc1OCC(=O)N1CCC(Cc2ccccc2)CC1	i
Cc1cc(C(F)(F)F)c2c(N)c(C(=O)c3ccc(Cl)s3)sc2n1	i
COc1ccc(C2=NN(C(C#N)c3ccc(N(C)C)cc3)C(c3ccccc3)C2)cc1 (centres undefined)	i
COCC(=O)Nc1ccc(C)cc1[N+](=O)[O-]	i
Fc1ccc(CN2CCN(C(=S)NCCc3ccccc3)CC2)c(Cl)c1	4.4%
CCn1c2ccccc2n2c(SCc3nc4ccccc4[nH]3)nnc12	i
Cn1c(=O)n(C)c2cc(NC(=O)c3ccccc3)ccc21	i
O=[N+]([O-])c1cccc(NC(=S)Nc2nn(Cc3ccc(Cl)c(Cl)c3)cc2Br)c1	i
COC(=O)c1ccc(NS(=O)(=O)c2cccs2)cc1	i

New compounds follow
SMILES	Mtb H37Rv
C=CCn1c(SCC(=O)NCCc2ccccc2)nc2scc(-c3ccc(C)o3)c2c1=O	i
CNC(=O)C1=C(C)NC(=S)NC1c1ccc(OCC(C)C)cc1 (centres undefined)	i
COc1ccc(C2CC(c3ccccc3Cl)n3ncnc3N2)cc1 (centres undefined)	3.2%
CCCCC(=O)Nc1ccc(NC(=O)C(C)(C)Oc2ccc(Cl)cc2)cc1OC	37.0%
O=C(NCCSc1nc2ccccc2s1)c1cccc(Cl)c1	5.2%
CCOC(=O)c1ccc(NC(=O)C2CCN(C(=O)c3ccc(C)cc3)CC2)cc1	i
COc1ccc(S(=O)(=O)N2CCC(C(=O)N3CCN(c4ccc(F)cc4)CC3)CC2)cc1	i
Cc1cc(C)c(NC(=O)CN(c2ccc(C)c(C)c2)S(C)(=O)=O)c(C)c1	i
CN(CC(=O)O)S(=O)(=O)c1ccc(F)cc1	1.2%
Cc1cccc(OCC(O)Cn2c(=N)n(C)c3ccccc32)c1 (centres undefined)	i
COc1c(O)ccc(C2NC(=S)NC(C)=C2C(=O)Nc2cccc(C)c2)c1[N+](=O)[O-] (centres undefined)	i
Cc1cc(Cl)ccc1OC(C)C(=O)Nc1ccc(S(N)(=O)=O)cc1 (centres undefined)	i
CCOC(=O)c1ccc(NC(=O)CC(O)(C(F)(F)F)C(F)(F)F)cc1	7.8%
O=C(C1CCC(C(=O)N2CCCc3ccccc32)CC1)N1CCCc2ccccc21 (centres undefined)	i
CC(=O)N1N=C(c2ccco2)CC1c1ccco1 (centres undefined)	i
Cc1c(C(=O)N2CCc3ccccc3C2)oc2ccccc12	3.4%
CCOc1ccc(-n2c(SCc3ccc([N+](=O)[O-])cc3)nnc2-c2ccccc2)cc1	i
COc1nc(C)ccc1-c1noc(-c2ccncc2)n1	0.7%
CCOc1ccccc1C(=O)Nc1nc(C)c(C(=O)N(C)C)s1	2.6%
O=S(=O)(NC1CC1)c1ccc2ccccc2c1	0.6%
O=C(NC(=S)Nc1cccc2cccc(NC(=S)NC(=O)c3cccs3)c12)c1cccs1	i
O=C(CSc1nnc(-c2ccncc2)n1-c1ccc(F)cc1)NCc1ccccc1	i
Cc1cccc(NC(=S)NCc2ccc3c(c2)OCO3)c1C	3.0%
O=S(=O)(O)c1cccc2c(S(=O)(=O)O)cccc12	i
COc1cccc(C(=O)NCc2ccc(C)cc2)c1OC	4.0%
CCc1ccccc1N(CC(=O)Nc1ccccc1C(=O)NC(C)c1ccccc1)S(C)(=O)=O (centres undefined)	i
COc1ccccc1C(=O)Oc1cc2c3c(c1)C(C)CC(C)(C)N3C(=O)C2=O (centres undefined)	i
O=C(Nc1nc2ccc(S(=O)(=O)N3CCCCC3)cc2s1)c1ccncc1	i
CCCCC(=O)Nc1c(C)cc(Br)cc1C	13.3%
O=c1oc(-c2cc3ccccc3o2)nc2sc3c(c12)CCCC3	7.3%
COc1ccc(Br)cc1C(=O)NC(=S)Nc1ncccc1O	i
O=c1cc(-c2ccccc2)nc(SCc2nc(-c3cccs3)no2)[nH]1	i
CCS(=O)(=O)CCSc1nc2ccccc2o1	0.2%
Cc1c(C=O)c2ccccc2n1CC(=O)NCc1ccco1	i
Cc1cc(OCC(=O)Nc2ccc(Cl)cc2C(F)(F)F)cc(C)c1Br	i
COC(=O)Cc1cc(=O)[nH]c(/N=C(\N)Nc2cccc(C)c2)n1	i
Cc1ccc(-c2cc(N)n(Cc3cccc(Cl)c3)n2)cc1	8.3%
COc1cccc2cc(C(=O)Nc3ccccc3C)c(=O)oc12	i
Cc1cc(Br)cc(C)c1OCC(=O)Oc1ccc([N+](=O)[O-])cc1	i
Cc1cc(Br)ccc1OCC(=O)N1CCCCCC1	i
Cc1ccc(CNC(=S)NCc2ccncc2)cc1	i
CCOc1ccc(OCCCCn2cnc3ccccc3c2=O)cc1	i
Cc1ccc(S(=O)(=O)N(CC(=O)Nc2ccccc2C)c2cc(C)ccc2C)cc1	1.4%
O=C(NCc1ccco1)c1ccc(CNS(=O)(=O)c2cccc(Cl)c2)cc1	i
COc1cc(Br)c(C2CC(=O)Nc3ccc4ccccc4c32)cc1OC (centres undefined)	44.6%
O=C(Cc1ccccc1)Nc1nnc(CCc2ccccc2)s1	6.2%
COC(=O)c1c(NC(=S)NNC(=O)c2ccco2)sc2c1CCC(C)C2 (centres undefined)	i
COc1cccc(-c2ccc(-c3noc(-c4ccccc4Br)n3)c(OC)n2)c1	i
COc1ccc(-n2ncc3c(N4CCOCC4)ncnc32)cc1	8.2%
O=C1CSC(=Nc2ccc(F)cc2)N1	i

Following part:
SMILES	Mtb H37Rv
O=C(CCc1nc2ccccc2s1)c1ccc(Br)cc1	2.3%
CCOC(=O)C1=C(c2ccccc2)Nc2ncnn2C1c1ccco1 (centres undefined)	i
O=C1CC(c2cccs2)Sc2nc(-c3ccccc3)nn21 (centres undefined)	i
CCCCNS(=O)(=O)c1ccc(C(C)(C)C)cc1	i
CNC(=O)CN(C1CCCCC1)S(=O)(=O)c1ccccc1	i
Cc1ccc(OCCC(=O)Nc2c(C)n(C)n(-c3ccccc3)c2=O)cc1	i
O=C(CN1CCCC1)N1c2ccccc2Sc2ccccc21	i
CCOC(=O)c1ccc(NC(=S)NNC(=O)c2csc(C)c2CC)cc1	i
COC(=O)COc1ccc(S(=O)(=O)NCc2ccco2)cc1C	i
CCC(C)c1ccc(NC(=O)c2cccc(Cl)c2)cc1 (centres undefined)	i
COc1ccc(-c2c(C(F)(F)F)oc3cc(OC(=O)CC(C)(C)C)ccc3c2=O)cc1OC	i
COc1ccc(-c2csc(NC(=O)CCCc3ccccc3)n2)cc1	i
Cc1cc(Cl)ccc1OCC(=O)Nc1c(C)cc(Br)cc1C	i
O=C(NCc1ccc2c(c1)OCO2)C(Sc1ccccc1)c1ccccc1 (centres undefined)	i
COc1ccc(Cl)cc1C(=O)N1CCC(Cc2ccccc2)CC1	i
CCn1c(SCC(=O)NCCc2ccccc2)nnc1C(NC(=O)c1ccccc1)C(C)C (centres undefined)	0.8%
CCc1ccccc1OCC(=O)Nc1sc2c(c1C(N)=O)CCC(C)C2 (centres undefined)	i
